Source: PubChem
Yeast UUG start: yeast start codon fidelity modulation; 350,000 compounds, 0.13% hits; S. cerevisiae UUG-firefly luciferase reporter, luminescence/redox ratio; activity score, % at 18.7 µM;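 active = replicate mean at a twofold rise or more, about +100% in these data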;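 note: firefly luciferase made from a UUG start codon reports start codon fidelity; reporter light over untreated wells divided by growth signal over untreated wells; some hits fall short of that in this replicate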
HIV Env fusion: HIV envelope-mediated fusion inhibition; inhibition, % at 12.3 µM; 360,000 compounds, 1.1% hits; HeLa-JRFL Env/CEM21 cell fusion, luciferase; AID 651610;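 active = mean replicate inhibition score of at least 50 and every replicate individually at or above 50; inconclusive = only one of the two criteria met; inactive = mean below 50 and not all replicates reaching 50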;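 note: 0% = plate neutral controls and 100% = maraviroc near 300 nM; one replicate is shown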
Starred values were filed as active, the others as inactive; ? = inconclusive; [ ] = another dose, or the depositor's remark. These rows are one share of the data; the hit share may differ from the screen's.

SMILES | Yeast UUG start | HIV Env fusion
O=C(C[C@@H]1C[C@@H]2c3cc(NC(=O)CC4CC4)ccc3O[C@@H]2[C@@H](CO)O1)NCc1cc(F)ccc1F | -2.8 | -1.5[16.7 µM]
C[C@@H]1CN([C@@H](C)CO)S(=O)(=O)c2ccc(C#Cc3ccncc3)cc2O[C@H]1CN(C)C(=O)C1CCOCC1 | 3.2 | 6.5[16.7 µM]
COCC(=O)Nc1ccc2c(c1)C(=O)N(C)C[C@@H](OC)[C@H](C)CN(CCc1ccccc1)[C@@H](C)CO2 | 7.8 | 7.1[16.7 µM]
COc1ccc(S(=O)(=O)Nc2cccc3c2O[C@H](CN(C)S(=O)(=O)c2ccc(C)cc2)[C@@H](C)CN([C@@H](C)CO)C3=O)cc1 | -8.0 | -72.5[16.7 µM]
O=C(C[C@H]1CC[C@H]2[C@@H](COC[C@H](O)CN2Cc2ccccc2F)O1)NC1CCC1 | 13.2 | -55.7[16.7 µM]
C[C@@H]1CCCCO[C@H](CN(C)Cc2ccncc2)[C@H](C)CN([C@@H](C)CO)C(=O)c2cc(NS(=O)(=O)c3cccs3)ccc2O1 | -3.7 | 11.5[16.7 µM]
C[C@@H]1CN([C@@H](C)CO)C(=O)c2cc(NC(=O)Nc3cccc4ccccc34)ccc2O[C@@H]1CN(C)Cc1ccc(C(F)(F)F)cc1 | 19.4 | -3.1[16.7 µM]
Cc1noc(C)c1S(=O)(=O)Nc1ccc2c(c1)C(=O)N([C@H](C)CO)C[C@H](C)[C@H](CN(C)C(=O)Nc1ccccc1)OCCCC[C@@H](C)O2 | -9.3 | 7.6[16.7 µM]
COc1ccc(NC(=O)N(C)C[C@H]2Oc3ncc(C#CC(C)C)cc3C(=O)N([C@@H](C)CO)C[C@@H]2C)cc1 | 13.2 | -14.7[16.7 µM]
CN(C)CC(=O)N[C@@H]1CC[C@@H](CCn2cc(C3CCCC3)nn2)O[C@@H]1CO | 3.8 | -3.6[16.7 µM]
C[C@H](O)C#Cc1ccc2c(c1)O[C@@H](CN(C)C(=O)c1ccccc1)[C@@H](C)CN([C@H](C)CO)S2(=O)=O | 20.6 | 11.5[16.7 µM]
CO[C@H]1CN(C)C(=O)c2cc(NC(=O)Nc3ccccc3Cl)ccc2OC[C@H](C)NC[C@H]1C | -6.3 | 2.6[16.7 µM]
Cc1noc(C)c1S(=O)(=O)Nc1ccc2c(c1)CC(=O)N([C@@H](C)CO)C[C@@H](C)[C@H](CN(C)Cc1ccc(C(=O)Nc3ccccc3N)cc1)O2 | 9.3 | 10.8[16.7 µM]
C/C=C/c1cnc2c(c1)C(=O)N([C@@H](C)CO)C[C@H](C)[C@H](CN(C)S(=O)(=O)c1ccc(OC)cc1)O2 | -13.5 | 11.9[16.7 µM]
C[C@@H]1CN([C@H](C)CO)C(=O)c2cc(C#CC3CC3)cnc2O[C@@H]1CN(C)Cc1ccccc1C(=O)O | 5.5 | -1.8[16.7 µM]
CO[C@@H]1CN(C)C(=O)c2cc(NC(=O)c3ccccc3)ccc2OC[C@H](C)NC[C@H]1C | 5.0 | -2.2[16.7 µM]
CC(=O)N(C)C[C@@H]1Oc2ncc(-c3ccc(C)cc3)cc2C(=O)N([C@@H](C)CO)C[C@H]1C | -12.1 | -11.1[16.7 µM]
CO[C@@H]1CN(C)C(=O)c2ccc(NC(=O)C3CC3)cc2OC[C@@H](C)N(C(C)=O)C[C@@H]1C | 5.1 | 10.0[16.7 µM]
C[C@@H]1CN([C@@H](C)CO)S(=O)(=O)c2ccc(C3=CCCCC3)cc2O[C@@H]1CN(C)Cc1ccncc1 | -13.7 | 1.2[16.7 µM]
C[C@@H]1CN([C@H](C)CO)C(=O)c2cc(NS(=O)(=O)c3ccc(F)cc3)ccc2O[C@@H]1CN(C)C(=O)Nc1ccccc1 | 12.7 | 9.5[16.7 µM]
C[C@@H]1CN([C@@H](C)CO)C(=O)Cc2cc(NS(=O)(=O)c3ccccc3)ccc2O[C@@H]1CN(C)CC1CCCCC1 | 2.4 | 6.7[16.7 µM]
C[C@H](CO)N1C[C@H](C)[C@@H](CN(C)C(=O)c2ccccn2)Oc2cc(C#Cc3ccc(F)cc3)ccc2S1(=O)=O | 5.0 | 8.5[16.7 µM]
C[C@H](CO)N1C[C@H](C)[C@@H](CN(C)S(=O)(=O)c2ccc(Cl)cc2)OCCCC[C@H](C)Oc2ccc(NC(=O)Cc3ccccc3)cc2C1=O | -4.9 | -1.8[16.7 µM]
C[C@H](CO)N1C[C@H](C)[C@H](CN(C)S(=O)(=O)c2cccc(F)c2)Oc2ncc(C#Cc3ccc(F)cc3)cc2C1=O | 15.3 | -11.5[16.7 µM]
CC(C)c1cn(CC[C@@H]2CC[C@H](NC(=O)C3CCC3)[C@@H](CO)O2)nn1 | -9.8 | 13.1[16.7 µM]
O=C(C[C@H]1CC[C@@H](NC(=O)C2CCC2)[C@H](CO)O1)NC1CCC1 | -6.1 | 10.5[16.7 µM]
C[C@H](CO)N1C[C@H](C)[C@@H](CN(C)C(=O)c2cccnc2)Oc2ncc(C#CCN(C)C)cc2C1=O | -18.1 | -12.8[16.7 µM]
C[C@@H]1CN([C@H](C)CO)C(=O)c2cc(NC(=O)CCCN(C)C)ccc2O[C@@H](C)CCCCO[C@@H]1CN(C)S(=O)(=O)c1ccc(Cl)cc1 | 0.1 | 11.9[16.7 µM]
C[C@H]1CCCCO[C@@H](CN(C)Cc2ccc(C(F)(F)F)cc2)[C@@H](C)CN([C@@H](C)CO)C(=O)c2cc(NC(=O)Cc3ccccc3)ccc2O1 | 10.1 | 74.5*[16.7 µM]
CO[C@H]1CN(C)C(=O)c2cc(NS(=O)(=O)c3ccc(Cl)cc3)ccc2OC[C@H](C)NC[C@@H]1C | 6.5 | 1.6[16.7 µM]
C[C@H](CO)N1C[C@H](C)[C@H](CN(C)C(=O)Nc2ccc(F)cc2)Oc2ccc(NC(=O)CCCN(C)C)cc2C1=O | -1.5 | -3.5[16.7 µM]
COc1ccc(-c2ccc([C@H]3[C@H](C#N)N(C(=O)NC4CCCC4)[C@H]3CO)cc2)cc1 | 2.6 | -0.9[16.7 µM]
C[C@H]1CN([C@@H](C)CO)C(=O)c2cccc(NC(=O)NC3CCCCC3)c2O[C@@H]1CN(C)C(=O)Nc1cccc2ccccc12 | 16.7 | ?
C[C@@H]1CN([C@H](C)CO)C(=O)Cc2cc(NC(=O)Cc3cn(C)c4ccccc34)ccc2O[C@@H]1CN(C)S(=O)(=O)c1ccc(F)cc1 | -6.5 | -2.2[16.7 µM]
Cc1ccc(-c2ccc3c(c2)O[C@@H](CN(C)S(C)(=O)=O)[C@@H](C)CN([C@H](C)CO)S3(=O)=O)cc1 | -8.8 | 8.2[16.7 µM]
C[C@H]1CCCCO[C@H](CN(C)S(=O)(=O)c2ccccc2)[C@@H](C)CN([C@@H](C)CO)C(=O)c2cc(NC(=O)Nc3ccc(F)cc3)ccc2O1 | 8.6 | 31.0[16.7 µM]

No new results follow: entries from further up.
SMILES | Yeast UUG start | HIV Env fusion
CC(C)c1cn(CC[C@@H]2CC[C@H](NC(=O)C3CCC3)[C@@H](CO)O2)nn1 | -9.8 | 13.1[16.7 µM]
O=C(C[C@H]1CC[C@@H](NC(=O)C2CCC2)[C@H](CO)O1)NC1CCC1 | -6.1 | 10.5[16.7 µM]
C[C@H](CO)N1C[C@H](C)[C@@H](CN(C)C(=O)c2cccnc2)Oc2ncc(C#CCN(C)C)cc2C1=O | -18.1 | -12.8[16.7 µM]
C[C@@H]1CN([C@H](C)CO)C(=O)c2cc(NC(=O)CCCN(C)C)ccc2O[C@@H](C)CCCCO[C@@H]1CN(C)S(=O)(=O)c1ccc(Cl)cc1 | 0.1 | 11.9[16.7 µM]
C[C@H]1CCCCO[C@@H](CN(C)Cc2ccc(C(F)(F)F)cc2)[C@@H](C)CN([C@@H](C)CO)C(=O)c2cc(NC(=O)Cc3ccccc3)ccc2O1 | 10.1 | 74.5*[16.7 µM]

Later entries
SMILES | Yeast UUG start | HIV Env fusion
C[C@@H]1CCCCO[C@@H](CN(C)Cc2ccc(C(=O)O)cc2)[C@@H](C)CN([C@H](C)CO)C(=O)c2cc(NC(=O)NC3CCCCC3)ccc2O1 | -4.9 | 2.8[16.7 µM]
C[C@H]1CN([C@@H](C)CO)C(=O)c2cccc(NC(=O)Nc3ccccc3)c2O[C@@H]1CN(C)S(=O)(=O)c1cn(C)cn1 | -12.0 | -6.0[16.7 µM]
COc1cccc(NC(=O)C[C@@H]2CC[C@@H]3[C@H](COc4ccc(NC(=O)C5CC5)cc4C(=O)N3C)O2)c1 | 12.8 | 7.2[16.7 µM]
COCC(=O)Nc1ccc2c(c1)C(=O)N(C)[C@H]1CC[C@@H](CC(=O)NCC3CC3)O[C@H]1CO2 | 9.1 | 16.8[16.7 µM]
COc1ccc(S(=O)(=O)N(C)C[C@@H]2Oc3c(NC(=O)Nc4cccc5ccccc45)cccc3C(=O)N([C@@H](C)CO)C[C@@H]2C)cc1 | 6.4 | -39.3[16.7 µM]
C[C@@H]1CN([C@H](C)CO)C(=O)c2cc(-c3cccc(F)c3)cnc2O[C@H]1CN(C)C(=O)c1ccccn1 | -1.2 | 4.5[16.7 µM]
C[C@@H]1CCCCO[C@H](CN(C)C(=O)Nc2ccccc2)[C@H](C)CN([C@@H](C)CO)C(=O)c2cc(NS(C)(=O)=O)ccc2O1 | -14.0 | 5.1[16.7 µM]
C[C@H](CO)N1C[C@H](C)[C@@H](CN(C)Cc2ccccn2)Oc2ncc(C#C[C@@H](C)O)cc2C1=O | -31.5 | 2.6[16.7 µM]
C[C@@H]1CCCCO[C@H](CN(C)Cc2ccc3c(c2)OCO3)[C@@H](C)CN([C@@H](C)CO)C(=O)c2cc(NS(=O)(=O)c3ccccc3)ccc2O1 | 7.3 | -103.8[16.7 µM]
CC(=O)N(C)C[C@H]1Oc2ncc(C#CC3(O)CCCC3)cc2C(=O)N([C@@H](C)CO)C[C@@H]1C | 27.0 | -12.7[16.7 µM]
COc1cccc(NC(=O)N(C)C[C@H]2Oc3ncc(C#Cc4ccccc4)cc3C(=O)N([C@@H](C)CO)C[C@H]2C)c1 | -24.6 | -7.4[16.7 µM]
C[C@@H]1CN([C@H](C)CO)C(=O)c2cc(/C=C/c3ccccc3)cnc2O[C@@H]1CN(C)S(=O)(=O)c1cccs1 | 9.1 | 11.9[16.7 µM]
COc1ccc(S(=O)(=O)N(C)C[C@@H]2Oc3ccc(NC(=O)Nc4ccccc4)cc3C(=O)N([C@@H](C)CO)C[C@H]2C)cc1 | -9.8 | 10.6[16.7 µM]
COc1ccc(NC(=O)N(C)C[C@@H]2OCCCC[C@H](C)Oc3ccc(NS(=O)(=O)c4cccs4)cc3C(=O)N([C@H](C)CO)C[C@H]2C)cc1 | 1.6 | 10.9[16.7 µM]
O=C(CCN1CCCCC1)N[C@H]1CC[C@@H](CCn2cc(-c3ccccc3)nn2)O[C@H]1CO | 5.0 | 2.6[16.7 µM]
C[C@@H]1CCCCO[C@@H](CN(C)S(=O)(=O)c2ccc(Cl)cc2)[C@@H](C)CN([C@@H](C)CO)C(=O)c2cc(NC(=O)C3CCCCC3)ccc2O1 | -1.2 | 21.9[16.7 µM]
CN1C(=O)c2cc(NS(=O)(=O)c3ccc(F)cc3)ccc2OC[C@H]2O[C@@H](CC(=O)O)CC[C@@H]21 | -11.7 | -10.0[16.7 µM]
Cn1cnc(S(=O)(=O)N[C@H]2C=C[C@@H](CC(=O)Nc3ccccc3)O[C@@H]2CO)c1 | -9.6 | -2.7[16.7 µM]
COc1ccc(S(=O)(=O)N(C)C[C@H]2Oc3c(NS(C)(=O)=O)cccc3C(=O)N([C@H](C)CO)C[C@H]2C)cc1 | 7.0 | 9.9[16.7 µM]
CO[C@H]1CN(C)C(=O)c2ccc(NS(=O)(=O)c3cn(C)cn3)cc2OC[C@H](C)N(C)C[C@H]1C | 7.4 | -4.7[16.7 µM]
C[C@@H]1CN([C@@H](C)CO)C(=O)Cc2cc(NC(=O)Nc3ccc4c(c3)OCO4)ccc2O[C@@H]1CN(C)Cc1ccc(-c2ccccc2)cc1 | -8.4 | 24.0[16.7 µM]
Cc1ccc(S(=O)(=O)Nc2ccc3c(c2)C(=O)N([C@H](C)CO)C[C@@H](C)[C@H](CN(C)C(=O)Cc2ccccc2)OCCCC[C@@H](C)O3)cc1 | -1.0 | -22.7[16.7 µM]
Cc1ccccc1-c1cnc2c(c1)C(=O)N([C@H](C)CO)C[C@H](C)[C@@H](CN(C)C(=O)c1ccccc1)O2 | 0.0 | -8.1[16.7 µM]
C[C@H](CO)N1C[C@H](C)[C@@H](CN(C)S(=O)(=O)c2ccc(F)cc2)Oc2ccc(NC(=O)Cc3cn(C)c4ccccc34)cc2CC1=O | 6.1 | -21.5[16.7 µM]
C[C@@H]1CCCCO[C@H](CN(C)CC2CCCCC2)[C@@H](C)CN([C@H](C)CO)C(=O)c2cc(NC(=O)C3CCCCC3)ccc2O1 | 4.5 | -14.4[16.7 µM]
O=C(C[C@@H]1C[C@H]2c3cc(NC(=O)c4ccc5c(c4)OCO5)ccc3O[C@H]2[C@H](CO)O1)NCc1cccc(F)c1 | 0.9 | 9.6[16.7 µM]
C[C@@H]1CCCCO[C@@H](CN(C)S(C)(=O)=O)[C@@H](C)CN([C@H](C)CO)C(=O)c2cc(NC(=O)CCCN(C)C)ccc2O1 | -2.0 | 5.6[16.7 µM]
O=C(C[C@H]1CC[C@@H](NC(=O)c2ccccc2)[C@H](CO)O1)Nc1ccc(-c2ccccc2)cc1 | -15.9 | -1.4[16.7 µM]
CO[C@@H]1CN(C)C(=O)c2ccc(NC(=O)Nc3ccccc3)cc2OC[C@@H](C)N(C(=O)CC2CC2)C[C@H]1C | 0.5 | -6.1[16.7 µM]
CCCC#Cc1cnc2c(c1)C(=O)N([C@@H](C)CO)C[C@H](C)[C@@H](CN(C)CCC)O2 | -1.6 | 6.3[16.7 µM]
Cc1ccc(S(=O)(=O)N(C)C[C@@H]2Oc3c(NC(=O)Nc4ccccc4)cccc3C(=O)N([C@H](C)CO)C[C@H]2C)cc1 | 5.8 | -6.2[16.7 µM]
